Source: PubChem (several laboratories)
T cruzi inh – blocks replication of Trypanosoma cruzi. AID 1885. T. cruzi beta-gal in NIH3T3, luminescence, 90 h. 300,000 compounds, 1.4% hits. inhibition, % (concentration not given with the values);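 active means mean inhibition across valid replicates above about 55%, limit read from the data; inconclusive means mean below that limit but half or more replicates reach it; inactive means mean below it, under half of replicates reach it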;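 further: signal also drops with host cell toxicity which is not excluded here; 0% = plate median of DMSO wells and 100% = zero luminescence signal; higher percent means less beta-gal luminescence so fewer parasites; stock transfer was 50 nL into about 50 µL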
Beta apoptosis – beta cell apoptosis inhibition | 300,000 compounds, 0.8% hits | protection from apoptosis, % (no concentration beside the values) | INS-1E cytokine-induced death, ATP luminescence, 48 h; percent of positive-control rescue, neutral wells zero;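 active means all replicates at 75% or more, or half of them and the mean; inconclusive means half reach 75% but not the mean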;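 further: 0% = cytokine-treated negative control wells and 100% = positive control rescue; higher means more ATP so stronger rescue from cytokine killing; wells of about 40 µL received 100 nL stock; the first replicate is given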
Ecoli rRNA inh – inhibitors of bacterial rRNA selective over humanized ribosomes; E. coli WT GFP vs humanized-ribosome RFP mutants, fluorescence, 24 h; active compounds read low; DMSO median 0, no signal -100; GFP signal change (wild-type ribosome), % (test concentration not listed); 350,000 compounds, 1.6% hits; AID 720706;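 active means significant combined selectivity score with lowered wild-type GFP, culture density cut under 30%, mutant RFP and density less affected; inactive means any of these conditions unmet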; further: one replicate is shown; some compounds called inactive have numbers as strong as hits
Calb FLC – affects C. albicans growth with fluconazole; C. albicans CaCi-2 (fluconazole-resistant clinical isolate) + fluconazole, Alamar Blue growth, 48 h; growth inhibition, % (no concentration beside the values); 300,000 compounds, 0.57% hits; AID 1979;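 active means most replicates above 75%; inconclusive means exactly half above 75%; inactive means most below 75%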;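 further: all wells also contain fluconazole at 8 µg/ml as a sub-toxic cotreatment; 0% = median of DMSO wells and 100% = median of geldanamycin control wells; wells of about 8 µL received 7.5 nL stock; the first replicate is given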
RanGTP-Impb inh – disruptors of Ran-importin-beta complex formation – biochemical, FRET, CFP-Ran, YFP-importin-beta, homogeneous, primary screen. cell-free CFP-Ran/YFP-importin-beta FRET ratio. inhibition, % (no concentration beside the values). 300,000 compounds, 1.1% hits;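 active means most replicates above 15%; inconclusive means exactly half above 15%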;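 further: 0% = DMSO wells and 100% = Ran loaded with GDP instead of GTP; wells of about 40 µL received 100 nL stock; the first replicate is given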
A1 inh – inhibitors of the anti-apoptotic protein A1, read as caspase activation; caspase activation, % (no concentration beside the values); 330,000 compounds, 0.066% hits; MEF A1-2A-BIM cells, Caspase-Glo 3/7 luminescence, 3 h; percent of clofoctol response, vehicle zero;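 active means over half of replicate activation scores above 10%, or exactly half above 10 with the replicate mean above 10; inconclusive means replicate mean below 10 yet half the replicates above 10; inactive means over half of replicates below 10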;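 further: wells of about 30 µL received 50 nL stock; many hits fall short of the cut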
MLL AF4-AF9 inh – blocks AF4 peptide binding to human AF9 | P42568 | AlphaScreen, biotin-AF4 peptide binding to FLAG-AF9 | inhibition, % at 10 µM | 350,000 compounds, 0.47% hits;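 active means every replicate reaching a set inhibition limit, whatever the replicate mean, cut at about 25% in these data; inconclusive means mean inhibition reaches that limit but some replicates miss it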;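 further: 0% = plate neutral control median and 100% = total signal loss; the record names both 10 and 1 µM as test concentration; the first replicate is given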
Target sequence (P42568 whole entry, looked up): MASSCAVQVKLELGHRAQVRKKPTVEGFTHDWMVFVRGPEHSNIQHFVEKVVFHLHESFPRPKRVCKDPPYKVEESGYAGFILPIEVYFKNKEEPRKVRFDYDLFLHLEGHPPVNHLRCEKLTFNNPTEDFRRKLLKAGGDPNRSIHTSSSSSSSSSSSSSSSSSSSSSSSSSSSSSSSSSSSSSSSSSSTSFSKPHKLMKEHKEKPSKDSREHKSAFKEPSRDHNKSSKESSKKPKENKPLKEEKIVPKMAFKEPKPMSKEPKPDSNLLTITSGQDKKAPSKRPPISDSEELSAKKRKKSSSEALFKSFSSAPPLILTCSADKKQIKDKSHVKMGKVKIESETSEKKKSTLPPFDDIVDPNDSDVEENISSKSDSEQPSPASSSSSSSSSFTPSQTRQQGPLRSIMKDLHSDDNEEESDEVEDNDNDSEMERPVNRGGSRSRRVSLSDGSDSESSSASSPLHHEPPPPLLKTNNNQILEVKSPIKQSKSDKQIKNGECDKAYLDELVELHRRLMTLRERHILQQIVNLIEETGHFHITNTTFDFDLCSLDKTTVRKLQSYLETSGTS
Vif TR-FRET – inhibitors of Vif binding to APOBEC3G peptide, primary screen, biochemical, TR-FRET, GST-Vif 1-94, biotin-A3G peptide, dose response retest (AID 1117319); TR-FRET GST-Vif / biotin-A3G peptide binding; higher % means a stronger effect; test concentration not given here; strong numbers were not always called active; one-dose inhibition, %; IC50 in µM for titrated hits; 260,000 compounds, 0.57% hits;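 active means above the screen mean plus three standard deviations and confirmed in dose response; inconclusive means results disagree or hit not tested in dose response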;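 further: Vif residues 1-94 fused to GST binding biotinylated APOBEC3G peptide 110-148; 0% = full assay without inhibitor and 100% = GST in place of GST-Vif; retest series ran down from 100 µM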
Ecoli rRNA inh OD600 – also measured in Ecoli rRNA inh; calls as there; OD600 change, %; measured here: OD600 growth;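 optical density of the mix in the first replicate; 0 = DMSO median and -100 = no signal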
Ecoli rRNA inh RFP – also measured in Ecoli rRNA inh; calls as there; RFP signal change, %; measured here: RFP humanized mutant strains;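 first replicate; 0 = DMSO median and -100 = no signal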
* marks the source's active call; other numbers are inactive results; ? = inconclusive; . = no result given. Some of the compounds tested. The share of hits here may be higher or lower than overall.

SMILES | T cruzi inh | Beta apoptosis | Ecoli rRNA inh | Ecoli rRNA inh OD600 | Ecoli rRNA inh RFP | Calb FLC | RanGTP-Impb inh | A1 inh | MLL AF4-AF9 inh | Vif TR-FRET
COc1ccccc1CNC(=O)C(C)NS(=O)(=O)c1ccccc1 (stereo not given) | 9 | -4 | . | . | . | 2 | -2.7 | 0.1 | . | -4%
COC(=O)C1=C(C)N(c2cc(C)cc(C)c2)/C(=C/c2ccc(O)cc2)C1=O | 34 | 7 | -1 | 1 | -0.2 | 22 | 1.6 | 0.4 | -1.1 | -7%
O=C(Nc1ccccc1)Nc1csc2ccccc12 | 10 | 14 | -3 | -7 | 9.4 | -2 | 0.1 | -0.8 | 2.6 | .
CCN(CC)c1ccc(NC(=O)COC(=O)/C=C/c2nc3ccccc3s2)cc1 | 5 | -2 | . | . | . | 0 | -1.2 | 1.1 | . | .
Oc1ccc(N=Nc2ccc3c(c2)OCO3)c2ccccc12 | ? | 99* | . | . | . | 2 | -2.4 | -8.8 | . | -1%
CCCSc1nnc2nc(C)cc(C)n12 | -7 | -3 | 7 | 7 | -0.3 | 5 | 6.4 | 0.4 | 2.4 | -2%
CN(C)C=C1C(=O)c2ccccc2C1=O | -13 | -8 | . | . | . | -4 | -0.4 | -0.7 | . | 3%
CC(NC(=O)CN(C)S(=O)(=O)c1ccc(F)cc1)C1CC2CCC1C2 (stereo not given) | . | -4 | -9 | 2 | -10 | . | . | 0.6 | 0.8 | ?
CN(C)C(CNc1ccc(S(C)(=O)=O)cc1[N+](=O)[O-])c1ccccc1 (stereo not given) | 7 | 0 | 16 | 12 | 3.1 | 0 | 1.5 | -0.1 | 2.8 | -1%
O=C(C1CCN(S(=O)(=O)c2ccc(F)cc2)CC1)N1CC=C(c2ccccc2)CC1 | 12 | -3 | . | . | . | ? | -4.4 | -0.5 | . | 3%
CN(C)CC(CCC(CN(C)C)C(=O)c1ccccc1)C(=O)c1ccccc1 (stereo not given) | 71* | . | . | . | . | ? | 4.8 | . | . | -33%
Cc1cccc(C)c1NC(=O)CC(NCc1ccco1)C(=O)O (stereo not given) | 5 | 2 | -2 | 8 | -3.9 | -12 | 0.0 | 0.1 | 0.8 | 6%
Cc1ccc(S(=O)(=O)N2CCCCC2)cc1NC(=O)COC(=O)C1CC2C=CC1C2 (stereo not given) | 4 | -6 | . | . | . | -9 | -3.9 | 0.7 | . | 12%
COc1ccc(CC(=O)Nc2sc(Cc3ccccc3)c(C)c2C(N)=O)cc1 | 13 | -3 | . | . | . | 2 | 1.8 | -0.1 | . | 10%
CCO[C@H]1OC(C(=O)N2CCCCCCC2)=C[C@@H](C)[C@@H]1CCCO | -12 | 2 | 4 | 0 | 4.5 | -13 | 0.6 | 1.9 | -1.0 | .
COc1ccc(S(=O)(=O)Nc2c(C(=O)O)[nH]c3ccccc23)c(OC)c1 | -17 | 3 | . | . | . | -1 | -0.5 | 0.4 | . | -3%
CC(C)(C)c1ccc(C(=O)Nc2cccc(-n3cnnn3)c2)cc1 | 6 | . | -16 | -55 | -7.1 | -8 | 5.6 | 1.0 | 0.9 | .
CCCCN(C(=S)Nc1ccc(F)cc1)c1c(N)n(CCC)c(=O)[nH]c1=O | -20 | -6 | 18 | 0 | 0.9 | -4 | -2.9 | -0.8 | -3.4 | .
COCCCNC(=O)c1c(-c2ccccc2)noc1C | -4 | 1 | . | . | . | 11 | 2.0 | 0.8 | . | -5%
Cc1nn(CC(=O)NC2(C#N)CCCCC2)c(C)c1[N+](=O)[O-] | . | -2 | 2 | 10 | -1.7 | . | . | -0.9 | 0.7 | .
O=c1[nH][nH]c(-c2ccccc2)c1C=Nc1ccc(F)cc1F | -5 | -4 | 10 | 11 | -0.9 | -24 | 3.7 | 0.0 | 0.0 | 6%
COc1cccc(C(=O)CN(C(=O)c2ccc(Cl)c(Cl)c2)N2C(=O)C3CCCCC3C2=O)c1 (stereo not given) | -3 | -8 | . | . | . | 6 | 2.3 | 0.1 | . | -2%
Cc1cc(C)c(S(=O)(=O)N2CCN(S(=O)(=O)N3CCC(C)CC3)CC2)c(C)c1 | 23 | 5 | 9 | 15 | 1.4 | 0 | -0.5 | 1.1 | -0.9 | .
CC(OC(=O)c1nc(Cl)ccc1Cl)C(=O)Nc1ccc2c(c1)OCCO2 (stereo not given) | -12 | -4 | -3 | -7 | 1.9 | 3 | -5.1 | 0.2 | -8.8 | -11%
Cc1ccc(C(=O)Nc2ccc(C(=O)O)cc2NC(=O)c2ccc(C)cc2)cc1 | -16 | 0 | 1 | 9 | -2.5 | -6 | 2.2 | 1.1 | -5.9 | .
CCCCN(C(=O)c1ccc(C)c(S(=O)(=O)N2CCOCC2)c1)c1c(N)n(CCCC)c(=O)[nH]c1=O | -9 | -2 | 3 | 13 | 2.0 | -2 | -1.2 | -0.7 | -14 | .
COc1ccccc1NC(=O)Cn1c(=O)sc2ccccc21 | 2 | -4 | . | . | . | 0 | 5.2 | ? | . | -8%
CC(=O)Nc1sc(N/N=C/c2ccc(O)cc2)nc1-c1ccc(C)cc1 | -17 | -1 | -6 | 1 | 7.0 | -1 | 0.2 | -1.8 | -1.0 | 4%
Cc1c(Cl)cnc(NC(=O)COC(=O)c2cccs2)c1Cl | . | -1 | 11 | 11 | 4.0 | . | . | 0.0 | 1.8 | -10%
CCN(CC)c1ccc(C=Nc2ccc(C)cc2)c(O)c1 | 3 | -12 | . | . | . | -12 | -1.2 | 0.8 | . | .
Cc1cc(C)c2c(n1)sc1c(=O)n(Cc3ccc(F)cc3)cnc12 | -2 | 3 | 4 | 5 | -0.9 | -9 | 0.4 | 0.3 | -0.6 | -16%
O=C(c1ccc(-n2cnnn2)cc1)N1CCCCC1 | -12 | 1 | . | . | . | -4 | 0.8 | 2.1 | . | 6%
O=C1CCc2cc(S(=O)(=O)NCc3ccc(F)cc3)cc3c2N1CCC3 | ? | 8 | -4 | 7 | -0.5 | -4 | -0.7 | -0.6 | -2.5 | 3%
S=C(NCc1ccccc1)NNc1nc2ccccc2[nH]1 | 13 | -5 | 7 | 14 | 4.5 | -10 | -1.4 | 0.5 | 0.9 | 13%
CCSc1nc(O)c(Cc2ccccc2)c(=O)[nH]1 | -5 | -2 | . | . | . | -8 | -3.4 | -0.3 | . | 1%
Cc1ccc(S(=O)(=O)N/N=C\c2cccnc2)cc1 | -9 | -6 | 12 | 6 | -4.9 | -7 | 2.6 | 0.5 | 2.4 | -8%
Cc1ccc(C)c(N2CCN(C(=O)c3ccc(N4CCOCC4)c([N+](=O)[O-])c3)CC2)c1 | . | 7 | 1 | -33 | 4.5 | 13 | 4.1 | 0.7 | 18 | .
CC(C)C1OC2(C)OC(=N)C1(C#N)C(C#N)(C#N)C2c1ccccc1 (stereo not given) | -28 | -9 | 11 | -12 | 37 | -4 | 32* | -0.4 | 4.7 | .
Cc1nc(N2N=C3/C(=C/c4ccc(F)cc4)CCCC3C2c2ccc(F)cc2)sc1C(=O)N(C)C (stereo not given) | 32 | . | . | . | . | 18 | -3.8 | . | . | -3%
O=C(/C=C/c1ccco1)Nc1ccc(Cl)c(S(=O)(=O)N2CCOCC2)c1 | -15 | -3 | -10 | -11 | 0.7 | -6 | -4.8 | -0.8 | 6.1 | 16%
CCC(=O)N1CCc2cc(Br)cc(S(=O)(=O)N3CCCC(C(=O)O)C3)c21 (stereo not given) | -14 | 1 | -5 | 1 | -1.8 | 6 | 1.0 | 0.3 | -0.9 | .
N=C1SC(c2ccccc2)C(=O)N1c1ncc(Cc2ccccc2Cl)s1 (stereo not given) | -1 | 0 | . | . | . | 0 | -1.1 | -0.2 | . | 0%
c1ccc2c(c1)nc1n2CC2CON(C3CCCCC3)C12 (stereo not given) | -14 | -1 | 11 | 11 | 0.2 | -4 | -0.7 | 0.4 | -6.2 | 7%
CCO[C@@H]1c2c(ccc3ccc(=O)oc23)OC(C)(C)[C@H]1O | . | -3 | 3 | 0 | 0.8 | . | . | 0.5 | 0.2 | .
CC1(C)C2CCC1(C)C(NC(=O)CCN1CCCCC1)C2 (stereo not given) | 25 | -1 | . | . | . | -4 | -2.4 | -0.1 | . | 2%
O=C(NCCc1c[nH]c2ccccc12)C1CCC(=O)N(CCc2cccc(F)c2)C1 (stereo not given) | -4 | 2 | -14 | -18 | -2.6 | 1 | 2.4 | 0.9 | -0.9 | .
CCOc1ccc(OCCOCCn2ccnc2)cc1 | -13 | 1 | . | . | . | 3 | ? | 0.5 | . | ?
COc1cccc(NC(=O)C(Cc2ccccc2)n2cccc2)c1 (stereo not given) | -8 | 3 | -11 | -9 | -0.4 | 3 | -9.2 | 0.8 | ? | -7%
CCN(CC(=O)NCc1cccs1)C(=O)c1cccc(S(=O)(=O)Nc2ccc(C)cc2)c1 | 12 | -1 | 4 | 6 | -1.3 | -5 | -1.6 | -0.2 | -5.2 | 4%
CC1(O)CC(c2ccc(Cl)cc2)=NN1C(=O)c1ccc(Cl)cc1 (stereo not given) | -31 | 6 | 7 | -3 | 4.6 | -15 | 2.2 | -0.2 | -0.7 | .
COc1ccc(Cl)cc1NC(=O)N1CCN(S(C)(=O)=O)CC1 | 0 | -1 | . | . | . | 2 | 4.1 | 0.6 | . | 4%
CC(C)CN1CCC(=O)N([C@H](CN=[N+]=[N-])Cc2ccccc2)CC1 | 3 | 4 | 7 | 22 | 2.5 | -15 | 5.7 | -0.2 | -0.9 | .
Cc1ccc(CN2CC(C(=O)NNC(=O)c3ccc(F)cc3)CC2=O)cc1 (stereo not given) | . | -6 | 1 | 5 | -2.6 | . | . | -0.2 | 1.8 | .
O=C(Nc1ccc2c(c1)OCCO2)c1ccccc1F | -16 | 1 | . | . | . | -13 | -4.0 | -7.2 | . | 29%
COC(=O)COc1ccc(/C=C2/NC(=O)N(CC(=O)OC)C2=O)cc1 | -5 | -10 | 3 | -4 | 1.5 | -48 | ? | 0.7 | -0.5 | 10%
O=C1CSC(=O)N1CCOCCN1C(=O)CSC1=O | -19 | -1 | . | . | . | -8 | -3.3 | -0.3 | . | -6%
CCc1cccc(NC(=O)Cn2cc3c(n2)CCCC3)c1 | 5 | -2 | 3 | 6 | 2.1 | -23 | ? | 0.5 | -6.2 | 1%
